Compound activity from PubChem.
SmPrx2 inh – inhibitors of Schistosoma mansoni peroxiredoxin 2; S. mansoni Prx2 activity coupled to TGR/GSH (TGR is thioredoxin glutathione reductase), NADPH fluorescence loss, qHTS; some inactives read as strong as hits; Potency, µM; 65,000 compounds, 0.07% hits; AID 448; active means full or partial inhibition curve with a strong effect at the top dose; inconclusive means weaker partial or single-point curve; inactive means no accepted curve; further: series up to 57 µM; many of its hits are not listed in these tables
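Prx2 inhibition was measured as reduced NADPH consumption when electrons flowed from NADPH through TGR and glutathione to Prx2 and H2O2. Plates were read kinetically over 8 min; enzyme reagents were held at 4 deg C during dispensing.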
Anthrax LT inh – blocks cellular internalization of anthrax lethal toxin | 70,000 compounds, 0.67% hits | Potency, µM (highest dose often 40 µM), inactives show top-dose activity change, negative = inhibition, most hits filed as inhibitors | AID 912 | Cells, anthrax lethal toxin internalization, FRET ratio (460/530); active = well fitted falling ratio curve with the 530 nm signal flat; inconclusive = other ratio curves, or a change in one channel alone; inactive = flat curves in the ratio and both channels; the % refers to the ratio; further: on the % scale 0 is the no-effect control and ±100 the full control effect; nearly all actives have a fitted effect of over 50% in size; tested in ME-180 cells; beta-lactamase reporter
Starred values were filed as active, the others as inactive; ? = inconclusive; / = no result given; & = joins results of further samples; [ ] = another dose, or the depositor's remark. Potency means the concentration at half of the fitted maximal effect. A portion of the library (hit frequency here may not be typical).

SMILES	SmPrx2 inh	Anthrax LT inh
O=C(c1ccco1)N1CCC2(CCCN(c3ncccn3)C2)CC1	>57	?
CC1=NC2(CCCc3c2no[n+]3[O-])N(O)C1(C)C (configuration not stated)	/	-2%
CCCC1CCC(C(=O)Nn2cnc3ccccc3c2=O)CC1 (configuration not stated)	>57	0%
CCCc1cc(=O)n2[nH]c(NCc3ccc(Cl)cc3Cl)nc2n1	>57	9%
CC(C)(C)NC(=O)C(c1ccncc1)N(C(=O)CNC(=O)c1ccco1)c1ccc2c(c1)OCO2 (configuration not stated)	>57	-8%
CC(=O)Nc1ccccc1-c1nc2ccc(C(=O)N3CCN(c4ccccc4)CC3)cc2[nH]c1=O	>57	-13%
Cc1cccc(-n2c(O)c(C=NCc3cccnc3)c(=O)[nH]c2=O)c1C	>57	-4%
CCOC(=O)c1c(NC(=O)Cn2c(C)nc3ccccc32)sc2c1CCC2	>57	-15%
O=C(CSc1nnc(-c2ccc3c(c2)OCCO3)o1)NC1CCCCC1	>57	14%
O=C(Nc1nc(-c2ccc(S(=O)(=O)N3CCCC3)cc2)cs1)C1COc2ccccc2O1 (configuration not stated)	>57	?
Cc1ccc(-c2ccc(=O)n(CC(=O)Nc3cccc(C(=O)N4CCN(C)CC4)c3)n2)cc1	>57	1%
CCN(CC)C(=O)CN(C)S(=O)(=O)c1cccc2nsnc12	>57	?
Cc1nc(SCC(=O)N(C)Cc2ccco2)c2c(C)c(C)sc2n1	>57	-16%
O=C(CSc1nnc2ccccn12)N1CCc2ccccc2C1	>57	3%
Nc1ccc(C2CCCc3nonc32)c2nonc12 (configuration not stated)	/	-16%
CCCn1c(SCc2ccccn2)nc2c1c(=O)n(C)c(=O)n2C	>57	?
Brc1ccc2ncnc(Nc3ccc(N4CCOCC4)cc3)c2c1	/	?
N#Cc1ccc(OCCN2C(=O)NC3(CCSC3)C2=O)cc1 (configuration not stated)	>57	-13%
CC1CCN(C(=O)CN2C(=O)c3ccccc3S2(=O)=O)CC1	>57	-4%
COc1ccc(C(=O)N2CCN(C(=O)c3ccco3)CC2)cc1	>57	9%
COc1cc(-c2noc(-c3ccco3)n2)cc(OC)c1OC	>57	-9%
O=C(NCCCn1ccnc1)Nc1ccc(Cl)c(Cl)c1	>57	-3%
COC(=O)c1ccc(CSc2nc3ccccc3c(=O)n2-c2ccc(OC)c(OC)c2)o1	>57	-1%
COc1ccc(NC(=O)C2CCC(=O)N2)cc1 (configuration not stated)	>57	7%
CCOCCCNC(=O)c1c(C)[nH]c(C(=O)OCC)c1C	>57	2%
Remaining list, next part:
SMILES	SmPrx2 inh	Anthrax LT inh
Cc1ccccc1-c1nccc(NCc2cccnc2)n1	>57	5%
COc1ccc(N(CC(=O)NC2CCCCCC2)S(=O)(=O)c2c(C)nn(C)c2C)cc1	>57	-4%
c1cc2c(cc1C1CCCN1)OCCCO2 (configuration not stated)	>57	-4%
O=S(=O)(Nc1ccc2c(c1)OCCO2)c1cnc[nH]1	>57	0%
Cc1c(C)[n+](=O)c(-c2cccs2)c(C)n1[O-]	>57	4%
Cc1ccc(CNC(=O)C2CNc3cc(C)ccc3O2)cc1 (configuration not stated)	>57	?
C=CCOC(=O)C(C(C)=O)C(NC(=O)OC)c1ccco1 (configuration not stated)	/	-5%[8 µM]
NS(=O)(=O)c1ccc(NC(=O)CSc2nnc(Cc3cccs3)n2-c2ccccc2)cc1	>57	/
CN1CCN(CCCNC(=O)c2cn(C3CCCCC3)c(=O)c3c2c2ccccc2n3C)CC1	>57	-18%
CN(C(=O)COC(=O)c1ccccc1Nc1ccccc1)C1CCS(=O)(=O)C1 (configuration not stated)	>57	-8%
CC(=O)Nc1c(O)[nH]c2ccccc12	>57	6%
OCCN(Cc1ccccc1)CC1CC=CCC1 (configuration not stated)	/	-15%
O=c1c(N2CCOCC2)nsn1Cc1ccccc1	>57	-6%
CC(C)c1ccc(C(O)c2cnc(C(C)C)n2C)cc1 (configuration not stated)	>57	-17%
Cc1cc2cc(CCNC(=O)c3c(-c4ccccc4Cl)noc3C)c(=O)[nH]c2cc1C	>57	-23%
CC(C)Sc1nnc(Nc2ccccc2)s1	>57	-7%
CCN(CCNC(=O)C1CCN(c2nnc(-n3cccc3)s2)CC1)c1ccccc1	>57	-18%
CCOC(=O)C1(C)NC(c2ccccc2F)C2C(=O)N(c3cccc(C(C)=O)c3)C(=O)C21 (configuration not stated)	>57	4%
COc1cccc(-n2c(Cc3cc(=O)[nH]c(=O)[nH]3)nnc2SCC(=O)N2CCCCCC2)c1	>57	-8%
CCOc1ccccc1C(=O)N1CCN(c2cccc(Cl)c2)CC1	>57	-21%
c1ccc(Cc2ccc(OCCn3cncn3)cc2)cc1	>57	-1%
CC(=O)c1cn(CC(=O)NCc2ccc3c(c2)OCO3)c2ccccc12	>57	-11%
CCOc1ccc(C(C)=O)cc1CN1C(=O)NC2(CCCCC2C)C1=O (configuration not stated)	>57	0%
CCC(C(=O)N1CCOCC1)n1c(C(=O)OC)cc2occc21 (configuration not stated)	>57	0%
CC1CCCC(NC(=O)COC(=O)c2ccc(S(=O)(=O)N3CCOCC3)cc2)C1C (configuration not stated)	>57	-18%
(cont.)
SMILES	SmPrx2 inh	Anthrax LT inh
COC(=O)Nc1ccc(S(=O)(=O)N(C)CC(F)(F)C(F)F)cc1	>57	3%
CCC(C)(c1ccc(C(=O)OC)s1)c1ccc(C(=O)OC)s1	/	?
Cc1ccn2cc(CNS(=O)(=O)c3ccc(Cl)s3)nc2c1	>57	1%
c1ccc(OCCSc2nnnn2C2CCCCC2)cc1	>57	-11%
CCc1cc2c(nc1CC)CCN(CC/C(C)=N/O[C@@H](C)c1cn([C@H](CO)Cc3ccccc3)nn1)C2	/	?
O=C(Nc1ccccc1)OC[C@H](CN1CCCCC1)OC(=O)Nc1ccccc1	>57	2%[3.58 µM]
CCCCn1c(SCC(=O)OC)nc2c1c(=O)n(C)c(=O)n2C	>57	-6%
COc1ccccc1NC(=O)C1CCCN(S(=O)(=O)c2cnc[nH]2)C1 (configuration not stated)	>57	3%
Cc1ccccc1-c1nc(N2CCN(C)CC2)c2ccccc2n1	>57	3%
CCc1ccc(NC2CC(=O)N(c3ccc(OC)cc3OC)C2=O)cc1 (configuration not stated)	>57	-2%
c1ccc(Cn2c(CSc3nnnn3-c3ccccc3)nc3ccccc32)cc1	/	?
COc1ccc(CCNC(=O)CCN2C(=O)COc3ccc(C)cc32)cc1OC	>57	-3%
O=C1CC(N2CCN(c3ccc(F)cc3)CC2)C(=O)N1Cc1cccs1 (configuration not stated)	>57	-3%
CCc1ccccc1N1CC23C=CC(O2)C(C(=O)OCC(C)C)C3C1=O (configuration not stated)	>57	9%
COc1ccc(OC)c(/C=c2\sc3nc(-c4cccs4)nn3c2=O)c1	>57	-3%
CCC(=O)N1c2ccc(S(=O)(=O)CCC(=O)NC3CCCC3)cc2CC1C (configuration not stated)	>57	-15%
O=C(NCc1ccco1)c1cccn2c(=O)c3cc(Br)ccc3nc12	>57	-10%
C=CCN1C(=O)CSc2ccc(C(=O)N3CCC4(CC3)OCCO4)cc21	>57	-2%
CCOc1ccc(-c2nnc3ccc(SCc4ccc(C(=O)OC)o4)nn23)cc1	>57	17%
O=C(NC1CCCCC1)N1CCC(n2c(=O)[nH]c3ccccc32)CC1	>57	-14%
Cc1cc(NC(=O)CSc2nnc(Cn3c(=O)sc4ccccc43)n2-c2ccccc2C)no1	>57	-15%
CCOC(=O)CCCCC(=O)c1[nH]c(=O)[nH]c1CN1CCOCC1	>57	-8%
COCC(C)NS(=O)(=O)c1ccc(NC(=O)C(Cc2ccccc2)NC(N)=O)cc1 (configuration not stated)	>57	-7%
CCN(CC)CP(=O)(c1ccccc1)c1ccccc1	>57	3%
CCCOc1ccc(-c2nnc(-c3ccncc3)o2)cc1	>57	-4%
(more compounds)
SMILES	SmPrx2 inh	Anthrax LT inh
O=S(=O)(Nc1cccnc1)c1cccc(C(F)(F)F)c1	>57	7%
Cn1c(SC/C=C/c2ccccc2)nnc1-c1ccco1	>57	0%
CCC1OCCC=CC1C (configuration not stated)	/	-9%[8 µM]
O=C(NCCCN1CCOCC1)c1cc(-c2ccc(F)cc2)on1	>57	0%
Cc1cc(C)cc(-n2ccnc2SCC(=O)Nc2ccc3c(c2)OCCO3)c1	>57	-11%
COc1cc(NC(=O)c2ccco2)c(OC)cc1NC(=O)Nc1ccccc1Cl	>57	1%
COC(=O)c1ccc2c(c1)N(Cc1cc(C)ccc1C)C(=O)c1ccccc1S2=O (configuration not stated)	>57	-5%
O=C1N2CCSC2=NC1(Nc1nccs1)C(F)(F)F (configuration not stated)	>57	10%
O=c1cnc2cnc(Oc3ccccc3)nc2n1Cc1cccs1	>57	-6%
Cc1ccc(C(C(=O)NC(C)(C)C)N(C(=O)c2csnn2)c2ccccc2F)o1 (configuration not stated)	/	-1%
O=C(COc1ccccc1O)N1CCN(C(=O)c2ccco2)CC1	>57	?
O=C1c2ccccc2C(=O)N1Cc1nc2ccccc2c(=O)n1-c1ccc(Br)cn1	/	28%
O=C1C2C3C=CC(C3)C2C(=O)N1c1cccc(N2C(=O)C3C4C=CC(C4)C3C2=O)n1 (configuration not stated)	>57	-8%
CC(C)(C)c1ccc(O)c(CN(Cc2cc(C(C)(C)C)ccc2O)C2CCCCC2)c1	>57	1%[8 µM]
Cn1c(=O)n(C)c2cc(NS(=O)(=O)c3ccc4c(c3)CCCC4)ccc21	>57	/
CC(C)(C)Nc1nc(OCC(F)(F)F)nc(OCC(F)(F)F)n1	>57	-14%
COC(=O)C(C)Sc1nnc(-c2ccncc2)o1 (configuration not stated)	>57	?
O=S(=O)(c1ccc(S(=O)(=O)N2CCN3CCCC3C2)cc1)N1CCCC1 (configuration not stated)	>57	5%
Cc1ccc(-c2nnc(CSc3nc4cc5c(cc4cc3C)OCO5)o2)cc1	>57	4%
C/C=C1\C(=O)C[C@@H]2[C@@H]3CCC4=CC(=O)CC[C@@]4(C)[C@H]3CC[C@@]12C	>57	-8%
Cc1nc2ccccc2c2oc(C(=O)NCCCN3CCC(C)CC3)cc12	>57	5µM*
COc1ccccc1-c1ccc2ncnc(NCCN3CCOCC3)c2c1	>57	?
Cc1onc(-c2ccccc2)c1C(=O)Nc1nnc(N(C)Cc2ccccc2)s1	>57	0%
O=C(CNS(=O)(=O)c1cccc2nonc12)NCc1ccc(F)cc1	>57	-1%
c1ccc(CCn2nnnc2CN2CCC(n3nnc4ccccc43)CC2)cc1	>57	7%
The list goes on:
SMILES	SmPrx2 inh	Anthrax LT inh
CCCN[C@@H](C)C(=O)Nc1ccccc1C	>57&>57	-8%[3.58 µM]
COc1cc(CCC(=O)N2CCN(c3ccc(N4CCOCC4)nn3)CC2)cc(OC)c1OC	>57	2%
CCOc1ccc(-n2cnnn2)cc1S(=O)(=O)NCCc1ccc(OC)c(OC)c1	>57	?
COC(=O)C1CCN(C(=O)c2sc3nc(-c4ccc(F)cc4)cn3c2C)CC1	>57	3%
COc1ccc(Cn2c(N)c(C(=O)NCc3ccco3)c3nc4ccccc4nc32)cc1	>57	4%
OCc1cn(-c2ccccc2)nc1-c1ccc2c(c1)OCCO2	>57	-14%
c1ccc(CNc2nc3ccccc3n3cnnc23)nc1	>57	6%
O=C1CCc2cc(S(=O)(=O)N3CCCC3C(=O)N3CCN(c4ccccc4F)CC3)ccc2N1 (configuration not stated)	>57	-5%
c1ccc2sc(NC3=NCN(Cc4ccc5c(c4)OCO5)CN3)nc2c1	>57	/
CCC(C)NC(=O)C1CCCN(C(=O)Nc2ccc(F)cc2)C1 (configuration not stated)	>57	-12%
CCc1nc(C)cn1S(=O)(=O)c1cc(C)c(OC)cc1C	>57	-17%
C(=N\n1cnnc1)/c1cccc2ccccc12	>57	9%
Cc1ccc2c(c1N)C(=O)c1ccccc1C2=O	/	6%
